Sa growth 42C – inhibitors of Staphylococcus aureus growth at 42 °C; S. aureus RN4220 growth, OD600, 20 h; hits give low values; relative growth, % (concentration not given with the values); 0.53% of 170,000 active;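 active = growth at 42 °C up to 50% and 20 or more points under that at 30 °C, or under 10% at both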;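 note: 300 nL library stock went into each well; scaled to the means of positive and negative controls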
GIV Gai3 FP – inhibitors of GIV GBA-motif binding to rat Galpha-i3; percent of control (FP), % (concentration not given with the values); AID 1224905; Galpha-i3/FITC-GIV peptide fluorescence polarization, 90 min; hits give low values; scaled: aluminum fluoride 0%, vehicle 100%; P08753; 0.42% of 210,000 active;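 active = replicate mean at 85% of control or lower, very high polarization wells dropped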;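 note: wells of about 15 µL received 100 nL stock; the first replicate is given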
Target sequence (P08753 whole entry, looked up): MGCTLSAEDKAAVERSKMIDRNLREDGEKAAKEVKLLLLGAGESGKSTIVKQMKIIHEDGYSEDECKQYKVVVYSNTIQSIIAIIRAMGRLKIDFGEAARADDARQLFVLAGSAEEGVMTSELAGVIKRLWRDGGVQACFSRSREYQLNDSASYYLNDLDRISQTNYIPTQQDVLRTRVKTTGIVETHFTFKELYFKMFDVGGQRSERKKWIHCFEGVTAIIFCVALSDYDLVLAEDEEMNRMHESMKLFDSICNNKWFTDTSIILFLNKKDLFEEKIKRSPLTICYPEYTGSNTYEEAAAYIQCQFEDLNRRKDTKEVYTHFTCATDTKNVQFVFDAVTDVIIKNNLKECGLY
HCMV UL50-53 inh – disrupts HCMV UL50-UL53 complex binding | HTRF UL50-UL53 interaction, normalized percent inhibition | inhibition, % (no concentration beside the values) | AID 1918969 | 0.15% of 190,000 active;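 active = both replicates at 50% or more, plus weaker picks with an unusually low signal ratio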;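 note: stock transfer was 100 nL into about 20 µL; 0% = negative control wells and 100% = wells with untagged competitor protein; inactives centre near -12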
Sa growth 42C second temp – further read-out of Sa growth 42C, marked with its call; relative growth, %; measured here: growth at 30 °C;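 optical density after 20 h as mean of two plates; 100% = untreated growth and lower means inhibition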
Numbers without * were called inactive; . = no result given; & = joins results of further samples. An unsorted share of the library; about 0.83% have a hit in one of these screens.

Field names – A = Sa growth 42C; B = Sa growth 42C second temp; C = GIV Gai3 FP; D = HCMV UL50-53 inh
Cc1cc(C)nc(/N=C2\NC(=O)CC3C(=O)NCCN23)n1 (stereo unspecified)
  A = 111 | B = 84 | C = 103 | D = -1

Cc1ccc(C(=O)SC2=NCCS2)cc1
  A = 99 | B = 90 | C = . | D = -10

COc1ccccc1CNC(=O)c1ccc2c(c1)N(Cc1c(F)cccc1Cl)C(=O)CS2
  A = 111 | B = 100 | C = 97 | D = -3

Cc1onc(-c2ccccc2Cl)c1C(=O)OCC(F)(F)F
  A = 92 | B = 100 | C = . | D = -31

Cc1ccc(S(=O)(=O)c2[nH]c(=S)sc2N2CCOCC2)cc1
  A = 50 | B = 64 | C = 100 | D = -13

CCc1ccccc1NC(=O)c1nnn(Cc2ccc(Cl)cc2)c1N
  A = 104 | B = 90 | C = 99 | D = -13

COC(=O)c1ccccc1C(=O)N1CCOCCOCCOCC1
  A = 87 | B = 80 | C = 107 | D = -20

CCOC(=O)c1ccccc1NC(=O)N1CCc2c(sc(C)c2CC)C1c1ccccc1 (stereo unspecified)
  A = 107 | B = 101 | C = 111&103 | D = -17

COC(=O)Cn1c(=O)oc2cc(S(=O)(=O)NCCN(C)C3CCCCC3)ccc21
  A = . | B = . | C = 98 | D = 0

CCC1C(=O)N=C(SCC(=O)Nc2cccc3ccccc23)NC1=O (stereo unspecified)
  A = 82 | B = 87 | C = 99 | D = -32

2 entries from above, reformatted:
Each structure is followed by: Sa growth 42C | Sa growth 42C second temp | GIV Gai3 FP | HCMV UL50-53 inh
CCc1ccccc1NC(=O)c1nnn(Cc2ccc(Cl)cc2)c1N
 : 104 | 90 | 99 | -13
Cc1ccc(C(=O)SC2=NCCS2)cc1
 : 99 | 90 | . | -10

Continuation.
Field names – A = Sa growth 42C; B = Sa growth 42C second temp; C = GIV Gai3 FP; D = HCMV UL50-53 inh
CN(C)Cc1ncccc1O
  A = 78 | B = 97 | C = . | D = 7

COC(=O)c1ccc(CSc2nc3c([nH]c4ccccc43)c(=O)n2-c2ccc(F)cc2)o1
  A = 119 | B = 85 | C = 99 | D = .

CCN1/C(=C/c2ccc3ccccc3[n+]2CC)Sc2cc(NC(C)=O)ccc21
  A = 101 | B = 84 | C = 163 | D = .

O=C(NC1=NCCS1)C1c2ccccc2Oc2ccccc21
  A = 108 | B = 102 | C = . | D = 4

NC(=O)C1CCCN(C(=O)Nc2ccc(F)cc2)C1 (stereo unspecified)
  A = 100 | B = 99 | C = 98 | D = -12

O=C(NCc1ccc(Cl)cc1)c1ccc2c(c1)NC(=O)C(CS(=O)(=O)Cc1ccc(F)cc1Cl)N2 (stereo unspecified)
  A = 99 | B = 92 | C = 195 | D = .

CCC(C)Oc1ccc(/C=C2/NC(=O)NC2=O)cc1Br (stereo unspecified)
  A = 83 | B = 86 | C = 105 | D = -85

O/N=C/c1ccc(F)c(Cl)c1
  A = 111 | B = 85 | C = 100 | D = 4

NC(Cc1ccc(OC(F)(F)C(F)(F)F)cc1)C(=O)O (stereo unspecified)
  A = 78 | B = 91 | C = . | D = -11

CC(=O)Nc1ccc(SCc2csc(C)n2)cc1
  A = 112 | B = 86 | C = . | D = -2

Brc1c(CSc2nc3ccccc3s2)nc2sccn12
  A = . | B = . | C = 106 | D = -15

CC(C)N1CC(=O)c2ccccc2S1(=O)=O
  A = . | B = . | C = 104 | D = 9

COc1ccc(C2CC3(OCCO3)C3(CCCCC3)O2)cc1 (stereo unspecified)
  A = 100 | B = 86 | C = . | D = -10

C=C(C)C1Cc2cc3ccc(=O)oc3cc2O1 (stereo unspecified)
  A = 103 | B = 69 | C = . | D = -23

COC(=O)c1ccc(COC(=O)C2CSC3(c4ccc(Br)cc4)CCC(=O)N23)o1 (stereo unspecified)
  A = 101 | B = 104 | C = . | D = 4

N#Cc1ccc(COC(=O)C2CCCCC2)cc1
  A = 88 | B = 100 | C = . | D = -5

O=C(Nc1ncnc2sc3c(c12)CCC3)c1cccs1
  A = 89 | B = 76 | C = . | D = -2

CN1CCN(C(CNC(=O)c2c(F)cccc2F)c2ccc3c(c2)OCO3)CC1 (stereo unspecified)
  A = 95 | B = 93 | C = 97 | D = .

O=CNCc1ccccc1OC(F)F
  A = 86 | B = 96 | C = . | D = -7

CCCc1nn2c(=O)cc(COC(=O)c3cccc(NC(=O)COc4ccc(F)cc4)c3)nc2s1
  A = 84 | B = 85 | C = 99 | D = .

Quoted at random: two records from the list
Field names – A = Sa growth 42C; B = Sa growth 42C second temp; C = GIV Gai3 FP; D = HCMV UL50-53 inh
O=C(Nc1ncnc2sc3c(c12)CCC3)c1cccs1
  A = 89 | B = 76 | C = . | D = -2

COC(=O)c1ccc(COC(=O)C2CSC3(c4ccc(Br)cc4)CCC(=O)N23)o1 (stereo unspecified)
  A = 101 | B = 104 | C = . | D = 4

Next section:
Field names – A = Sa growth 42C; B = Sa growth 42C second temp; C = GIV Gai3 FP; D = HCMV UL50-53 inh
Cc1c(Cl)cccc1N=C1SCC(=O)N1Cc1ccco1
  A = 78 | B = 51 | C = 102 | D = -35

COc1cccc(CC(=O)Nc2c(C(=O)N3CCN(c4ccccc4F)CC3)oc3ccccc23)c1
  A = 86 | B = 34 | C = 102 | D = 1

CC1=CC(=C(C#N)C#N)C=C(C)N1Cc1cccnc1
  A = 111 | B = 85 | C = . | D = -1

O=C(C1CCN(S(=O)(=O)Cc2ccc(F)cc2)CC1)N1CCCC1
  A = . | B = . | C = 100 | D = -22

O=C(c1cc2c(s1)CCC2)N1C(=O)c2ccccc2S1(=O)=O
  A = 107 | B = 95 | C = . | D = -31

CCOc1cc(/C=C2/SC(=S)NC2=O)ccc1OS(=O)(=O)c1ccccc1[N+](=O)[O-]
  A = . | B = . | C = 111 | D = -39

O=C1CC2(CCCC2)C(=O)N1c1ccc(Cl)c(Cl)c1
  A = 96 | B = 88 | C = 98 | D = 7

Cc1ccc(-c2onc3ccc(C4(C)OCCO4)cc23)cc1
  A = 94 | B = 94 | C = 111 | D = 2

O=C(c1ccc(CN2C(=O)CCn3nc(-c4cccc(Cl)c4)cc32)cc1)N1CCOCC1
  A = . | B = . | C = 104 | D = -12

CCCn1c(CN2CCN(CC)CC2)nc2cc(NC(=O)C3CCCCC3)ccc21
  A = . | B = . | C = 103 | D = -1

Oc1ccc(-c2nnco2)cc1
  A = 94 | B = 85 | C = 96 | D = -1

O=C(CSc1nc(-c2ccccc2)c(-c2ccccc2)[nH]1)NCc1ccco1
  A = 107 | B = 93 | C = 102 | D = -5

Cc1nn(-c2cccc(Cl)c2)nc1C(=O)N(C)CC(=O)NCc1ccco1
  A = 97 | B = 96 | C = . | D = 4

COc1ccc2[nH]cc(CCNC(=O)C3CC3)c2c1
  A = 89 | B = 88 | C = 101 | D = -6

CCNc1nc(NC(C)C)nc(OCCNC(=O)COc2ccc(Cl)cc2C)n1
  A = 139 | B = 96 | C = 104 | D = -12

Cc1cnc(CC#N)s1
  A = 99 | B = 91 | C = . | D = -20

NC(=O)COc1ccc(/C=N/NS(=O)(=O)c2ccccc2)cc1
  A = 108 | B = 91 | C = . | D = -24

Cc1ccc(C)c(OCCC(=O)N=c2sccn2C)c1
  A = 90 | B = 93 | C = . | D = -7

COc1ccc(NC(=O)CSC(=O)c2ccccc2)cc1Cl
  A = 76 | B = 91 | C = . | D = 7

CCOC(=O)C1CCCN(C(=O)c2cncc(Br)c2)C1 (stereo unspecified)
  A = 93 | B = 89 | C = . | D = -6

CCNC12CC3CC(CC(C3)C1)C2
  A = 103 | B = 83 | C = . | D = -23

CC(SC1=NCCS1)C(=O)Nc1nnc(-c2ccc(Cl)cc2)s1 (stereo unspecified)
  A = 97 | B = 77 | C = 96 | D = -29

O=C(c1ccccc1)N1CCN(CCc2ccccn2)CC1
  A = 104 | B = 86 | C = 97&102 | D = -13&0

COc1ccc(N(C(=O)c2ccccc2C)S(=O)(=O)c2ccc3c(c2)n(C)c(=O)n3C)cc1
  A = 76 | B = 88 | C = 102&92 | D = -13&-20

Cc1ccc(C)c(CSc2ncccc2C(=O)O)c1
  A = 96 | B = 76 | C = 103 | D = -30

CC1CCN(C(=O)CSc2nnc(-c3ccccc3)o2)CC1
  A = 96 | B = 67 | C = 103&98 | D = -5&-29

Cc1cc(NC(=O)c2ccc3c(c2)OCCO3)cc(-c2nc3ccccc3s2)c1O
  A = . | B = . | C = 98 | D = -17

CN(Cc1ccccc1)C(=O)c1cc(-c2cccc(Cl)c2)on1
  A = 103 | B = 92 | C = 103 | D = -9

CCC1(C)CC(=O)c2c(ccc3oc(C(=O)Nc4ccc(C(C)=O)cc4)c(C)c23)O1 (stereo unspecified)
  A = 112 | B = 87 | C = 110 | D = -17

Cc1nc(Nc2ccc(NC(=O)Nc3cccc(Cl)c3)cc2)cc(N(C)C)n1
  A = . | B = . | C = 102 | D = -32

CCN1CCN(c2nc3ncn(CC(=O)Nc4ccc(OC)c(Cl)c4)c(=O)c3s2)CC1
  A = . | B = . | C = 102 | D = -17

O=C(CSc1ncn[nH]1)NCc1ccccc1
  A = 105 | B = 91 | C = 98 | D = -7

Cc1ccc(NC(=O)Nc2ccc(Nc3cc(N(C)C)nc(C)n3)cc2)cc1
  A = . | B = . | C = 101 | D = -41

N#Cc1ccc(/C=N/n2cnnc2)cc1
  A = 105 | B = 87 | C = . | D = -54

O=C(c1nc(-c2ccccc2)n(-c2ccccc2)n1)N1CCOCC1
  A = . | B = . | C = 99 | D = -21

O=C(CCC(=O)N1CCc2cc(S(=O)(=O)N3CCCCC3)ccc21)N1CCCCC1
  A = . | B = . | C = 99 | D = -28

CS(=O)(=O)Nc1cnc(N2CCC(CCN3CCOCC3)CC2)c(C(=O)O)c1
  A = . | B = . | C = 108 | D = -23

CCOC(=O)CSC1=Nc2ccccc2C2=NC(CC(=O)NCc3ccc(OC)cc3)C(=O)N12 (stereo unspecified)
  A = 99 | B = 90 | C = 109 | D = 7

Cc1nc2ccc(S(=O)(=O)NCC(=O)NC3CCCCCC3)cc2s1
  A = 91 | B = 88 | C = 100 | D = 3

COc1ccc2c(ccc(/C=C3\Sc4ccccc4N3C)[n+]2C)c1
  A = 4.7* | B = 9.1* | C = 180 | D = .

Cc1ccc(-n2nc(C)c3nc(CCC(=O)Nc4cccc(C)c4C)c(=O)n(C)c32)cc1
  A = 95 | B = 93 | C = 103&104 | D = -19

CCc1ccc(NCc2cc3ccc(OC)cc3n(CC(=O)Nc3c(C)cc(C)cc3C)c2=O)cc1
  A = 80 | B = 88 | C = 102 | D = .

NC1CCN(Cc2ccccc2)CC1
  A = 95 | B = 96 | C = 101 | D = 7

Cc1c(Br)c(C(F)(F)F)nn1CC(=O)Nn1c(-c2cccs2)nc2ccccc2c1=O
  A = . | B = . | C = 102 | D = -32

CCOC(=O)c1c(SCC(=O)Nc2nc3ccc(C)cc3s2)nc(=O)[nH]c1C
  A = 141 | B = 89 | C = 101&100 | D = .

Cc1ccc(F)cc1N1C(=O)COCC1=O
  A = 94 | B = 89 | C = 97 | D = 37

O=C(CN1c2ccc(F)cc2-c2ccccc2S1(=O)=O)NCc1ccccn1
  A = . | B = . | C = 106 | D = 0

COCCCNC(=O)c1ccc(Cn2c(=O)c3ccccc3n(Cc3ccccc3C)c2=O)cc1
  A = 94 | B = 93 | C = 100 | D = -2

O=C(CCCc1nnc2c(=O)n(-c3ccc(Cl)cc3)ccn12)NCCc1c[nH]c2ccccc12
  A = . | B = . | C = 107 | D = -17

Nc1ccc(Cn2cnc(-c3nc(-c4cccc(F)c4)no3)c2)cc1
  A = . | B = . | C = 102 | D = -28

Further results:
Field names – A = Sa growth 42C; B = Sa growth 42C second temp; C = GIV Gai3 FP; D = HCMV UL50-53 inh
O=C(CCCN1C(=O)c2ccccc2C1=O)Nc1ccccc1
  A = 86 | B = 94 | C = . | D = -6

Cc1ccc(NC(=S)N(CCc2ccccc2)Cc2ccccc2)cc1
  A = 97 | B = 64 | C = 103 | D = .

CN(CC(=O)Nc1ccc(F)cc1)C(=O)c1ccc2ccccc2n1
  A = 96 | B = 85 | C = . | D = -16

CC1CS(=O)(=O)N(c2ccc(S(=O)(=O)Nc3ccc(Br)cc3)cc2)C1=O (stereo unspecified)
  A = . | B = . | C = 107 | D = -4

Cc1ccc2oc(-c3cc(NC(=O)c4ccco4)ccc3Cl)nc2c1
  A = 87 | B = 79 | C = 110 | D = -22

c1ccc(CSc2nc3ncccc3o2)cc1
  A = 98 | B = 99 | C = 101 | D = -32

CN1C(=O)C(CC(=O)NCC2CCCCC2)SC1=Nc1ccccc1 (stereo unspecified)
  A = 69 | B = 115 | C = 97 | D = 2

O=S(=O)(Nc1nonc1NS(=O)(=O)c1ccc(F)cc1)c1ccc(F)cc1
  A = 87 | B = 74 | C = . | D = -18

Cc1c(C#N)c(N)nc(SCC(=O)c2cc3ccccc3oc2=O)c1C#N
  A = 50 | B = 59 | C = 107 | D = -26

CCOc1ccc2c(C)c(Cl)c(=O)oc2c1C
  A = 110 | B = 70 | C = 103 | D = -5

O=c1cc(CSc2ccc(Cl)cc2)nc2sccn12
  A = 94 | B = 82 | C = 117 | D = 0

Cc1cc(C)nc(NCC(O)CNc2ccccc2C)n1 (stereo unspecified)
  A = 112 | B = 83 | C = . | D = -6

Screening results deposited in PubChem BioAssay by ICCB-Longwood Screening Facility, Harvard Medical School.
